# HSV augment: HSV replication enhancement. HSV replication augmentation in cells, fold increase. maximum fold increase. actives 0.005% (n = 220,000);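 active = peak rise of 1.5-fold or more in the series; inconclusive = self-fluorescent or not available for retest; tested in PC3 cells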;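 also: first round at 10 µM; read as green reporter fluorescence; hits show the peak of a series up to 25 µM; 1 = signal of infected wells without compound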
# INS promoter inh: TRM-6 insulin promoter activity inhibition. TRM-6 cells (human fetal islet line), insulin promoter-eGFP reporter, imaging; reporter expression induced with tamoxifen. inhibition, % at 2 µM. actives 0.9% (n = 130,000). AID 1273;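 active = inhibition above the mean plus 3 SD, with well images judged a real hit on visual review, cut at about 60% in these data, passing the limit was not always enough; inconclusive = inhibition over the cutoff but images rejected on review; inactive = inhibition not above the cutoff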
# PKD1 inh: inhibitors of human PKD1 kinase | Q15139 | PKD1 kinase fluorescence polarization assay | inhibition, %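 (about 10 µM by stock and volumes)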 | actives 0.056% (n = 200,000) | AID 797;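 active = inhibition of 50% or more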;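 also: controls were vehicle for no effect and a reference inhibitor for full effect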
# GALR2 ag: GALR2 (human) receptor agonism. O43603. GALR2-expressing cells, agonist activation read-out. activation, %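 (tested at 5 µM)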. actives 0.48% (n = 140,000);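 active = above mean plus 3 SD of all compounds, about 5% in these data, not always enough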;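 also: 0% = vehicle buffer wells and 100% = reference agonist at full effect; tested in CHO reporter cells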
# Target sequence (O43603 whole entry, looked up): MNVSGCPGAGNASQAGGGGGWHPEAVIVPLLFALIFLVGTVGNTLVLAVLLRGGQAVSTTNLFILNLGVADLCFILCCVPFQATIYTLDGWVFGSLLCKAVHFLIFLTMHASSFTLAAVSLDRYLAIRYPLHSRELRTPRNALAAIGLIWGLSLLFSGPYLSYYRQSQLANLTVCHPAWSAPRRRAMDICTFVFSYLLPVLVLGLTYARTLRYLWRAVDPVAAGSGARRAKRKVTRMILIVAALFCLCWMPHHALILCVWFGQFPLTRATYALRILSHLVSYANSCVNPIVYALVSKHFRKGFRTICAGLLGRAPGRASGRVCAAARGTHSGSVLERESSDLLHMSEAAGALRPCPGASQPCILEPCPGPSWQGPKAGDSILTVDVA
# RGS16-Gao: regulators of human RGS16-Galphao interaction. bead-based flow cytometry RGS16-Galphao binding, fluorescence; actives lie on both sides. binding response (% of control), % at 10 µM. actives 0.38% (n = 220,000). AID 1441;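 active = below 25% or above 175%, edge rows of some plates excepted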;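 also: Galphao activated by GDP with aluminum fluoride before binding; 100% = wells without compound and 0% = beads without RGS; some results beyond the cut were filed as inactive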
# Target sequence (O15492 whole entry, looked up): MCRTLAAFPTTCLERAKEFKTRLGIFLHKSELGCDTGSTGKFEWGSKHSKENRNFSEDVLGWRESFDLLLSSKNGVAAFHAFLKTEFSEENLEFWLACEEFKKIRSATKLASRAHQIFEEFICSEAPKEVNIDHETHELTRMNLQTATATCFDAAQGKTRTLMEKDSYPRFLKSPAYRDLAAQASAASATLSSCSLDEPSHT
# Target sequence (P09471 whole entry, looked up): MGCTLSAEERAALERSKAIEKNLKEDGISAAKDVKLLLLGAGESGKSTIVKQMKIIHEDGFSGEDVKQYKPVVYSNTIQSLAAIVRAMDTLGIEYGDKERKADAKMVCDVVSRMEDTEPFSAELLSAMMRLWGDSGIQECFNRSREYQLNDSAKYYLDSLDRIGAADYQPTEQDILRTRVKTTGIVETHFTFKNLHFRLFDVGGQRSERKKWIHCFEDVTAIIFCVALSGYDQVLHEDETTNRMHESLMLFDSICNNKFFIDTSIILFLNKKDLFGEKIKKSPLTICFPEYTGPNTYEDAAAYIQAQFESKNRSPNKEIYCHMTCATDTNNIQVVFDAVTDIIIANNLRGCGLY
# INS promoter inh cell count: also measured in INS promoter inh; calls as there; normalized cell count, %; measured here: cell count, toxicity; reference of the scale not given here;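 cells exposed to compound for 48 h; stained nuclei by imaging scaled within each plate; lower means fewer cells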
# HSV augment primary fold: further read-out of HSV augment, marked with its call; fold increase; compound at 10 µM; measured here: primary screen fold increase 10 uM; tested in PC3 cells;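 GFP signal in the first replicate; 1 = infected wells without compound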
# Numbers without * were called inactive; i = inactive; ? = inconclusive; . = no result given.
SMILES,HSV augment,HSV augment primary fold,INS promoter inh,INS promoter inh cell count,PKD1 inh,GALR2 ag,RGS16-Gao
O=C1N=C(N2CCCCC2)S/C1=C/C1=Cc2ccccc2OC1,i,0.96,.,.,5,.,99
Cc1cc(-c2sccc2C)nc(-n2cccc2)n1,i,0.71,7,123,-4,-2.3,99
CCNC(=O)Cc1ccc(NS(=O)(=O)c2ccc(F)cc2)cc1,i,0.87,8,95,0,-1.9,112
COc1ccc(Nc2nc(N)c([N+](=O)[O-])c(N3CCOCC3)n2)cc1,i,0.89,.,.,.,.,91
Cc1cccc(C)c1NC(=O)C1CCCN1C(=O)OC(C)(C)C (configuration not stated),i,1,-120,66,-12,.,109
Cc1sc2ncnc(Sc3ccccc3C(=O)O)c2c1C,i,0.96,-20,116,3,.,101
O=C(Nc1ccncc1)c1ccc2c(c1)S(=O)(=O)c1ccccc1C2=O,i,1,.,.,-6,.,98
Cc1sc(NC(=S)NC(=O)c2ccco2)c(C#N)c1C,i,0.86,.,.,-2,.,97
Cc1csc(-c2cnn(-c3ccccc3)c2NC(=O)c2cccc(C(F)(F)F)c2)n1,i,0.86,.,.,-4,-1.0,144
O=C(O)C1C2C=CC(C2)C1C(=O)NCc1ccco1 (configuration not stated),i,0.93,37,94,-2,.,97
C=CCCCCCCCCc1nc(=S)[nH][nH]1,i,1.2,-31,176,-3,-2.0,99
CCN(CC)CCCN1C(=O)C(O)=C(C(=O)c2cccs2)C1c1ccccn1 (configuration not stated),.,.,.,.,-6,-1.8,.
N#CC1=C(N)C(C#N)(C#N)[C@H](c2ccoc2)[C@H]2CN(Cc3ccccc3)CC=C12,?,.,-212,121,12,4.0,106
CCOC(=O)c1c(C)c(-c2ccccc2)n(CC(=O)N2CCCC2)c1C,i,0.88,.,.,9,-1.9,101
Cc1nnc2ccc(-c3ccc(NC(=O)c4cccnc4Cl)cc3)nn12,i,1,-17,112,-6,.,98
O=C(Cn1cnc2ccccc2c1=O)c1ccc2c(c1)OCCO2,i,0.93,-22,113,-2,-1.5,102
Cc1cc(NS(=O)(=O)c2ccc(NC(NC(=O)C(C(F)(F)F)C(F)(F)F)(C(F)(F)F)C(F)(F)F)cc2)no1,i,0.86,35,100,1,-1.8,40
COC(c1ccccc1)c1nnc(CCC(=O)NC2CCCCC2)o1 (configuration not stated),i,1.1,.,.,-6,.,103
CC(=O)c1cccc(NC(=O)C(OC(=O)/C=C/c2ccc3c(c2)OCO3)c2ccccc2)c1 (configuration not stated),i,0.7,32,134,-10,-1.8,209
COc1ccc(Oc2ncnc3c2ncn3Cc2ccccc2)cc1,i,0.95,-69,88,3,-0.4,99

# 3 entries from above, as tab-separated lines:
SMILES	HSV augment	HSV augment primary fold	INS promoter inh	INS promoter inh cell count	PKD1 inh	GALR2 ag	RGS16-Gao
O=C(Cn1cnc2ccccc2c1=O)c1ccc2c(c1)OCCO2	i	0.93	-22	113	-2	-1.5	102
Cc1cc(NS(=O)(=O)c2ccc(NC(NC(=O)C(C(F)(F)F)C(F)(F)F)(C(F)(F)F)C(F)(F)F)cc2)no1	i	0.86	35	100	1	-1.8	40
COC(c1ccccc1)c1nnc(CCC(=O)NC2CCCCC2)o1 (configuration not stated)	i	1.1	.	.	-6	.	103

# (listing goes on)
SMILES,HSV augment,HSV augment primary fold,INS promoter inh,INS promoter inh cell count,PKD1 inh,GALR2 ag,RGS16-Gao
CCc1nnc(NC(=O)C2Cc3ccccc3CN2S(=O)(=O)c2c(C)c(C)cc(C)c2C)s1 (configuration not stated),i,0.97,-3,78,-1,-0.2,97
Cc1ccc(-c2csc3nc[nH]c(=O)c23)cc1,i,1,.,.,6,.,108
CN(CCc1ccccn1)C(=O)Nc1ccc(Cl)cc1,i,1,-31,151,8,-0.2,101
Cc1cccc(NC(=O)Nc2ccc(C)c(C)c2)n1,i,1,-121,87,3,1.1,61
CCOC(=O)CC(=O)Nc1ccccc1C(=O)O,i,1,-71,140,-13,-2.0,100
CCOc1cccc(/C(O)=C2/C(=O)C(=O)N(CCOC)C2c2ccncc2)c1 (configuration not stated),i,0.99,.,.,8,-1.4,112
COc1ccc(/C=N/Nc2nonc2N)cc1OC,i,0.91,-329,45,-5,-1.5,102
O=C(Nc1ccc2c(c1)nc1n2CCN(Cc2ccccc2)C1)c1cccs1,i,0.63,-31,181,-11,0.2,103
O=C(Nc1ccccc1)c1ccc(NC2CCCCC2)c(S(=O)(=O)N2CCOCC2)c1,i,0.92,-242,96,-5,-0.9,103
CCOC(=O)C1(Cc2ccc(Cl)cc2)CCN(C(=O)c2cscn2)CC1,i,1,.,.,-4,.,98

# Shown with two lines to a compound: part of the list above.
# Results follow in this order: HSV augment, HSV augment primary fold, INS promoter inh, INS promoter inh cell count, PKD1 inh, GALR2 ag, RGS16-Gao
COc1ccc(/C=N/Nc2nonc2N)cc1OC
    i, 0.91, -329, 45, -5, -1.5, 102
CCc1nnc(NC(=O)C2Cc3ccccc3CN2S(=O)(=O)c2c(C)c(C)cc(C)c2C)s1 (configuration not stated)
    i, 0.97, -3, 78, -1, -0.2, 97
Cc1cccc(NC(=O)Nc2ccc(C)c(C)c2)n1
    i, 1, -121, 87, 3, 1.1, 61
Cc1ccc(-c2csc3nc[nH]c(=O)c23)cc1
    i, 1, ., ., 6, ., 108

# The results go on.
SMILES,HSV augment,HSV augment primary fold,INS promoter inh,INS promoter inh cell count,PKD1 inh,GALR2 ag,RGS16-Gao
CCOC(=O)c1cnc2ccc(OCC)cc2c1NCc1ccccc1OC,i,0.69,16,151,-5,-0.1,99
COC(=O)c1ccc2c(=O)n(CCN3CCOCC3)c(SCC(=O)NCc3ccccc3)nc2c1,i,0.96,38,144,-6,.,100
COc1ccc2c(c1)c(=O)oc1cc(OCC(=O)N3CCc4ccccc4C3)ccc12,i,0.9,.,.,2,-2.4,96
O=C(NCc1cccs1)Nc1cccs1,i,1.1,.,.,-11,-3.1,101
CCOC(=O)c1ccc(N2C(=O)CC(N3CCN(C/C=C/c4ccccc4)CC3)C2=O)cc1 (configuration not stated),i,0.99,30,121,1,0.7,i
Cc1cc(=O)oc2cc(Oc3ccc([N+](=O)[O-])cc3C(F)(F)F)ccc12,i,0.78,-18,157,7,-0.3,.
CCN1CCN(C(=O)CS(=O)Cc2nc(-c3ccc(OC)cc3)oc2C)CC1 (configuration not stated),i,0.95,.,.,5,-3.6,108
C=CCOc1ccc(CNn2cn[nH]c2=S)cc1OC,i,1.1,-29,160,20,-0.3,105
COc1ccc(S(=O)(=O)N(CCC(N)=O)Cc2ccco2)cc1OC,i,1.1,.,.,.,.,98
CCc1c(C)nc(N)nc1OCC(F)(F)C(F)F,i,0.93,-42,73,3,-1.1,109
CC(C)CC1N=C2c3ccccc3N=C(SCc3cc(=O)n4ccccc4n3)N2C1=O (configuration not stated),.,.,-71,53,0,0.3,.
O=C(CSc1nccn1Cc1ccccc1)NCc1ccccc1,i,0.84,-14,162,1,-2.1,103
Cc1cc2nc(N3C(=O)CNC3=S)sc2cc1C,i,0.94,.,.,-5,.,100
Cc1ccc(CNS(=O)(=O)c2ccc3c(c2)n(C)c(=O)c(=O)n3C)cc1,i,1.2,-22,105,4,.,98
CCOC(=O)N1CCN(C(=O)C2CCN(S(=O)(=O)N3CCCC3)CC2)CC1,i,1.1,0,102,4,-0.9,99
C=CCNCCOCCSc1ccc(Cl)cc1,.,.,8,100,3,0.3,100
Cc1ccc(S(=O)(=O)N2CCC(C(=O)NCCc3ccc(S(N)(=O)=O)cc3)CC2)cc1,i,0.98,-42,87,-5,-3.4,101
COc1ccc(OCCC(=O)OCC(=O)NCCc2ccccc2)cc1,i,0.94,.,.,-7,.,101
CN(C)S(=O)(=O)n1cnc2ccccc21,i,0.92,22,52,2,-0.6,105
O=C(Nc1sc2c(c1C(=O)c1ccccc1)CCCC2)c1cccnc1,i,0.9,26,152,-3,-1.0,112
COc1ccc(N2CCN(C(=O)c3ccc(COc4ccc5c(C)cc(=O)oc5c4)cc3)CC2)cc1,i,0.97,36,78,-2,-1.7,100
COC(=O)Nc1cccn(Cc2c(Cl)cccc2Cl)c1=O,i,0.68,-3,135,-8,-0.5,96
Cc1ccc(OCC(=O)Nc2ccc3c(c2)OC(F)(F)O3)c([N+](=O)[O-])n1,i,0.95,-6,136,1,0.8,100
COc1ccc(-c2c(C#N)c(N)nc3sc(C(=O)c4ccc(C)cc4)c(N)c23)cc1,i,1.1,-3,116,-1,0.8,106
O=C(c1cc2ccccc2o1)c1nc2c(n1O)CCCCC2,i,0.83,0,138,-13,-3.1,105
O=C(N/N=C/c1cccnc1)c1[nH]ncc1Br,i,1.1,.,.,-4,.,125
CCSc1nnc(NC(=O)c2cccnc2Cl)s1,i,1.1,-339,61,-5,0.7,107
CCCc1c(C)[nH]c2ccc(C(=O)O)cc2c1=S,i,0.85,.,.,.,.,89
Cc1nnc(SCCCN2C(=O)c3ccccc3C2=O)o1,i,0.92,.,.,-3,-0.1,93
CSC1=NCCN1C(=O)Cc1cccs1,i,0.91,.,.,-10,-0.1,102
CC1CCC2(CC1)C(Nc1cccc(Cl)c1)=NC(=S)N2CC#N (configuration not stated),i,0.83,.,.,3,-1.5,105
COc1ccc(/C=N/N(Cc2ccccc2)c2ccccc2)cc1O,i,0.99,27,72,-3,.,99
Cc1ccc(C(=O)NNC(=S)NC(=O)COc2ccccc2)cc1,i,1,11,137,-9,-2.8,101
Cc1ccc(S(=O)(=O)N2CCSC2=Nc2ccccc2)cc1,i,0.86,.,.,.,.,99
CCN1CCCC1CNC(=O)C1c2ccccc2C(=O)N(CCOC)C1c1ccc(F)cc1 (configuration not stated),i,0.76,29,123,-5,-1.5,105
CCN(CC)S(=O)(=O)c1cc(C(=O)n2cccn2)c(Cl)cc1Cl,i,0.99,-200,46,-1,-2.5,101
CC(C)NCC(O)COC1C2CC3CC(C2)CC1C3 (configuration not stated),i,1,.,.,-2,.,102
COCCn1nnnc1C(c1cc2cc(OC)ccc2[nH]c1=O)N1CCC(Cc2ccccc2)CC1 (configuration not stated),i,0.88,9,59,-2,-0.6,99
CCCN(CCC)CCNC(=O)CCC(=O)Nc1ccc2nc(N3CCN(C)CC3)cc(C)c2c1,i,0.81,.,.,-1,.,98
CCCCn1c(=O)c(C(C)=O)c(O)c2ccccc21,i,1.1,.,.,-6,.,104
Cc1ccc(/C=C(\NC(=O)c2ccc(C)cc2)c2nc(=S)[nH][nH]2)cc1,i,0.79,.,.,-10,-0.2,101
CCCn1c(SCC(=O)N2CCN(S(=O)(=O)c3ccc(Cl)cc3)CC2)n[nH]c1=O,i,0.99,-43,155,-1,-1.3,102
O=C(c1ccco1)N1CCN(c2ncnc3c2[nH]c2ccccc23)CC1,.,.,29,100,2,-1.5,97
O=C(COc1ncnc2ccccc12)NC1CCS(=O)(=O)C1 (configuration not stated),i,0.62,55,86,0,-0.7,109
COc1cccc(N=CC=C2OC(C)(C)C(C)(C)O2)c1,i,1,-65,59,2,.,100
O=C1CCCc2nc(N3CCN(C(c4ccccc4)c4ccccc4)CC3)ncc21,i,1.1,.,.,1,-1.5,110
O=c1cc(N2CCCCC2)c(-c2ccccc2)nn1Cc1ccc(Cl)cc1Cl,i,0.92,6,67,-4,0.3,100
CN(CC(=O)Nc1ccc(S(=O)(=O)N2CCCC2)cc1)CC(=O)Nc1ccc(F)c(F)c1F,i,0.98,-45,100,-4,.,101
COc1ccc(COc2ccsc2C(=O)Nc2ccc(Cl)c(Cl)c2)cc1,i,0.83,3,129,4,-3.0,96
CCN(CC)C(=O)c1cn(CCC#N)nc1-c1ccc2c(c1)OCCO2,i,1,-7,85,2,.,99

# The listing continues:
SMILES,HSV augment,HSV augment primary fold,INS promoter inh,INS promoter inh cell count,PKD1 inh,GALR2 ag,RGS16-Gao
O=C(CN1C(=O)c2cccc3cccc1c23)N1CCN(c2ccc(F)cc2)CC1,i,0.96,31,93,5,-3.0,99
COc1ccc(Cc2nc(-c3ccc(-n4cccc4)cc3)no2)cc1OC,i,1.2,.,.,2,-0.7,114
COc1cccc(C(=O)Cn2c(NCCO)nc3ccccc32)c1,i,0.87,47,107,-9,-3.1,101
Cc1cccc(OCC(=O)Nc2ccc3nc(C)sc3c2)c1,i,0.95,.,.,-5,.,103
CCOC(=O)c1c(C)[nH]c(C(=O)C(C)Sc2ccc(Cl)cc2)c1C (configuration not stated),i,1,-39,50,-7,-0.5,110
CN(CCCNC(=O)C1CCN(S(=O)(=O)N2CCC3(CC2)OCCO3)CC1)Cc1ccccc1,i,0.93,-30,38,-7,-1.8,106

# Screening data from PubChem.
